Menin-MLL TR inh: qHTS Assay for Inhibitors Targeting the Menin-MLL Interaction in MLL Related Leukemias: Competition With Texas Red Labeled MLL-derived Mutant Peptide; O00255; Menin + Texas Red MLL mutant peptide, fluorescence polarization; AID 1768, 2009; Potency, µM (highest dose often 61.6 µM), inactives show at the highest dose FP activity change, negative = inhibition, usual class: inhibitors; 270,000 tested, 0.23% active; active means well fitted inhibition curve with a large enough effect in the polarisation, with a control signal flat, not every such curve was filed as active; inconclusive means small, poorly fitted or top-dose-only effect, or effect the other way, or a change in a side signal; inactive means no such curve, though single readings can be large or run the other way; the % refers to the polarisation; further: potency means the concentration at half of the fitted maximal effect; % of control where 0% means no effect; many of its hits are not listed in these tables
PKM2 act: qHTS Assay for Activators of Human Muscle isoform 2 Pyruvate Kinase. purified PKM2, Kinase-Glo ATP luminescence, activation; response scale: 0% is enzyme alone, no compound. 260,000 tested, 0.34% active. Potency, µM (series often up to 57.5 µM), for inactives: at the highest dose activation, most hits filed as activators; further: potency means the concentration at half of the fitted maximal effect; on the % scale 0 is the no-effect control and ±100 the full control effect; nearly all actives have a fitted effect of over 55% in size
Target sequence (P14618 whole entry, looked up, canonical isoform): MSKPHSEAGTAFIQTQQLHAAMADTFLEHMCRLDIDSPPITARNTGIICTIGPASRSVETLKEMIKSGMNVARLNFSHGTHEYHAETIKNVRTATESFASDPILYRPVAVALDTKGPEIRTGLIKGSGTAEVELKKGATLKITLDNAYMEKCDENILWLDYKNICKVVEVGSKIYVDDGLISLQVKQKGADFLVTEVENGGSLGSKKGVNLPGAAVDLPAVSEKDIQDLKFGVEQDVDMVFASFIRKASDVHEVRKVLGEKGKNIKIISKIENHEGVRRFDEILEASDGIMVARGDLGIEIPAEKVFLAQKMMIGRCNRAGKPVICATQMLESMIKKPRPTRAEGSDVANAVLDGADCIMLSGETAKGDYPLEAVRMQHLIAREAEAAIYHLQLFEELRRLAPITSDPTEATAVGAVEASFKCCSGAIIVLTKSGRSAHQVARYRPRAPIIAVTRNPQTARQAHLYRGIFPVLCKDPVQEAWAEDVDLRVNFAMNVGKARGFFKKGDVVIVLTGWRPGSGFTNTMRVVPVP
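Purified hPK-M2 (>95%) run at intermediate activity with 0.1 mM ADP and 0.5 mM PEP in 50 mM imidazole pH 7.2, KCl, MgCl2; 1 h room temperature. ATP formed read by Kinase-Glo luminescence; normalized to uninhibited and no-enzyme controls.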
USP2a block: qHTS Assay for Inhibitors of Ubiquitin-specific Protease USP2a Using CHOP2 as the Reporter. 330,000 tested, 0.01% active. Potency, µM (highest dose often 38.3 µM), without a hit: at the top dose activity change, negative = inhibition, actives largely listed as inhibitors. USP2 core, Ub-CHOP2 coupled fluorogenic reporter, 485/531. AID 463254, 2010;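 further: potency means the concentration at half of the fitted maximal effect; plate controls were DMSO wells for no effect and full inhibition by NEM control for full effect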
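USP2 core (10nM final) preincubated 30min RT with compound in 20mM Tris-HCl pH 8.0, 2mM CaCl2, 2mM beta-mercaptoethanol, 0.05% CHAPS; 25nM Ub-CHOP2 plus 25nM reporter substrate added, fluorescence (Ex485/Em531) read after 60min.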
Giardia kill: Small Molecules that selectively kill Giardia lamblia: qHTS | Giardia lamblia trophozoite viability | 340,000 tested, 0.15% active | activity change, % at 7.66 µM, hits read low | AID 540267, 2011; in the data active means activity change below about -80%; inconclusive means between about -30% and that limit;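 further: parasites exposed to compound for two days anaerobically before the ATP read; on the % scale 0 is the no-effect control and ±100 the full control effect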
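Luminescent ATP signal served as the viability read-out, measured 15-30 min after adding ATP detection reagent to trophozoites that had been incubated with compounds for 48 hrs at 37 deg C anaerobically at 100 cells/well.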
Coupling enz: qHTS Assay for Inhibitors of Fructose-1,6-bisphosphate Aldolase from Giardia Lamblia: Coupling assay counterscreen. coupling enzyme system counterscreen, AmpLite Red fluorescence. activity change, negative = inhibition, % at 58.2 µM, hits read low. 290,000 tested, 0.67% active. AID 2472, 2010; in the data active means activity change below about -30%; further: on the % scale 0 is the no-effect control and ±100 the full control effect
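Coupling enzymes only (glyceraldehyde-3-phosphate) + compound, at 57.5 uM final, 10 min RT; add substrate/coupling/AmpLite Red mix, 20 min RT; fluorescence ex 525/em 598 nm. Actives flag coupling-system interference.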
MLL CXXC-DNA inh: qHTS Fluorescence Polarization Assay for Inhibitors of MLL CXXC domain - DNA interaction; MLL-CXXC / FITC-HOXA9 DNA fluorescence polarization; Potency, µM (doses to about 115 µM), for inactives: top-dose activity change, negative = inhibition, hits mostly inhibitors; 290,000 tested, 0.037% active; active means well fitted inhibition curve with a large enough effect in the polarisation, with a control signal flat, not every such curve was filed as active; inconclusive means small, poorly fitted or top-dose-only effect, or effect the other way, or a change in a side signal; inactive means no such curve, though single readings can be large or run the other way; the % refers to the polarisation; further: potency means the concentration at half of the fitted maximal effect
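Fluorescence polarization: 7 uM MLL-CXXC (stock) preincubated 5 min with compounds, then 50 nM fluorescein-HOX-A9 DNA (stock) added; 30 min ambient. Buffer 50 mM Tris-HCl pH 7.5, 50 mM NaCl, 1 mM DTT, 0.05% BSA.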
GALK inhibitor: qHTS Assay for Inhibitors of Human Galactokinase (GALK). Potency, µM (series often up to 57.5 µM), without a hit: top-dose activity change, negative = inhibition, actives largely listed as inhibitors. P51570. Purified GALK, Kinase-Glo residual ATP luminescence. 270,000 tested, 0.007% active. AID 1868, 2009; further: potency means the concentration at half of the fitted maximal effect; on the % scale 0 is the no-effect control and ±100 the full control effect
Target sequence (P51570 whole entry, looked up): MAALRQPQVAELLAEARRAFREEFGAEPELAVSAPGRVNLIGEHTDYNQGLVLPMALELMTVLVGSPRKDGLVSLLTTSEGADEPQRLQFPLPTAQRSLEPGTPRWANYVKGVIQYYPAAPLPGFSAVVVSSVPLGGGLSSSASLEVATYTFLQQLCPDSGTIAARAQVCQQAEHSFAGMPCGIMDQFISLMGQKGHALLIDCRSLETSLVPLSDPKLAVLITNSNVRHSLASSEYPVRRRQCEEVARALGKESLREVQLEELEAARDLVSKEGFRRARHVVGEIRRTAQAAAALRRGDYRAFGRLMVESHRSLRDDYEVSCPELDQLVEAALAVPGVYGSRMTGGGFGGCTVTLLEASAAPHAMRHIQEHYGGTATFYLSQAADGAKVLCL
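5 nM enzyme, 35 uM ATP, 100 uM galactose, 20 mM HEPES pH8.0, 5 mM MgCl2; 1 h RT; residual ATP by Kinase-Glo Plus luminescence, qHTS format.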
TRPV1 agonist: HTS Assay for Compounds that Act as Agonists of the Vanilloid Receptor 1; Transient receptor potential cation channel subfamily V member 1 (Homo sapiens), Q8NER1; TRPV1-expressing cells, Fluo-8 calcium influx, agonist mode; activation, % at 8.33 µM; 320,000 tested, 0.19% active; AID 540275, 2011; in the data active means activation above about 80%; inconclusive means between about 30% and that limit; further: 0% is about no effect
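Cells expressing TRPV1 were dye-loaded with Fluo-8 and read kinetically: 10 s baseline, 3 min after compound (agonist portion), then 2 min after EC20 capsaicin (allosteric enhancer portion). Calcium-bound dye fluorescence at 480/520 nm.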
Numbers without * were called inactive; ? = inconclusive; / = no result given; & = joins results of further samples; ! = not confirmed by another sample; [ ] = dose if it differs, or a comment. Unless noted, the call rests on the fitted dose curve; in most records, active means well fitted curve in the direction sought with a large enough effect; inconclusive means small, poorly fitted or top-dose-only effect, or another doubt; inactive means no such curve, though single readings can be large; an effect the other way counts as inactive or inconclusive.

structure | Coupling enz | PKM2 act | TRPV1 agonist | GALK inhibitor | Menin-MLL TR inh | Giardia kill | MLL CXXC-DNA inh | USP2a block
CSc1ccc2c(c1)N(CC[C@H]1CCCCN1C)c1ccccc1S2 | 2.6 | / | / | / | -15.0%[24.8 µM] | / | / | /
Cc1cccc(CN2CCN([C@@H](c3ccccc3)c3ccc(Cl)cc3)CC2)c1 | 0.1 | / | / | / | -13.2%[24.8 µM] | / | -1.2%[51.4 µM] | /
CN(C)CC[C@H](c1ccc(Cl)cc1)c1ccccn1 | 0.3 | / | / | / | -1.0%[24.8 µM] | / | / | /
OC(CCN1CCCCC1)(c1ccccc1)C1C[C@@H]2C=C[C@H]1C2 (some centres not stated) | / | / | 2.0 | / | / | 1.9 | / | 2.0%
Cc1ccnc(NS(=O)(=O)c2ccc(N)cc2)n1 | 3.9&2.2&-0.2 | 5.5% | 0.1 | -2.2% | -0.7% | 11.8 | 14.8% | 6.6%
CC(C)NC[C@H](O)c1ccc(NS(C)(=O)=O)cc1 | 4.0&-1.1 | / | / | / | -2.5%&0.3%[24.8 µM] | / | / | /
OC[C@@H](O)[C@@H](O[C@@H]1O[C@H](CO)[C@H](O)[C@H](O)[C@H]1O)[C@H](O)[C@@H](O)CO | / | / | / | / | / | 29.8 | / | /
COCCc1ccc(OCC(O)CNC(C)C)cc1 (configuration not stated) | -2.9&5.3 | -12.8% | 1.6&-1.0 | 1.1% | 6.3%&-1.5%&8.2% | -4.7&7.2&11.3 | -2.1%&-5.7% | 2.3%&-2.0%&0.7%
CO/N=C(\C(=O)N[C@@H]1C(=O)N2C(C(=O)O)=C(COC(C)=O)CS[C@H]12)c1csc(N)n1 (stereo in doubt) | 1.6 | 2.8% | -1.3 | 0.5% | 3.1%&3.9% | 8.6&-5.1&-19.2 | 3.7%&-19.3% | 1.7%&3.2%&0.7%
C#C[C@]1(OC(C)=O)CC[C@H]2[C@@H]3CCC4=CC(=O)CC[C@@H]4[C@H]3CC[C@@]21C | 6.4 | / | / | / | -12.4% | / | / | /
CCCCc1nc(Cl)c(CO)n1Cc1ccc(-c2ccccc2-c2nn[nH]n2)cc1 | 8.5&-1.4 | 0.3% | 4.5 | / | 2.6%&14.2% | -4.6 | 15.3%&-5.6% | -8.4%
Clc1ccc2c(c1)C(N1CCNCC1)=Nc1ccccc1O2 | -1.3&-3.3&0.6 | 0.5% | 7.6 | -0.7% | ? | -17.3 | 11.2%&4.7% | -1.0%
O=C1O[C@@H]([C@H](O)CO)C(O)=C1O | / | / | / | / | / | 10.1 | / | /
O=C(O)Cc1ccc(-c2ccccc2)cc1 | 6.3&10.6 | -9.6% | -1.6 | 3.8% | -15.4% | 7.6 | -3.5% | 2.5%
O=C1CC2(CCCC2)CC(=O)N1CCCCN1CCN(c2ncccn2)CC1 | 2.8&0.6&-1.1 | 3.0% | -3.8 | 1.3% | -0.8% | -12.4 | 9.1%&-10.4% | 2.2%
CC(=O)OC1C(=O)[C@@]2(C)C(O)CC3OC[C@]3(OC(C)=O)C2C(OC(=O)c2ccccc2)[C@]2(O)CC(OC(=O)C(O)C(NC(=O)c3ccccc3)c3ccccc3)C(C)=C1C2(C)C (some centres not stated) | 8.8 | / | / | / | -14.5% | / | / | /
Cc1c(Nc2ncccc2C(=O)O)cccc1C(F)(F)F | -3.2&0.6 | / | 0.3 | / | 4.5% | 1.8 | -1.2%[51.4 µM] | 2.6%
CN[C@H](CC(C)C)C(=O)N[C@H]1C(=O)N[C@@H](CC(N)=O)C(=O)N[C@H]2C(=O)N[C@H]3C(=O)N[C@H](C(=O)N[C@H](C(=O)O)c4cc(O)cc(O)c4-c4cc3ccc4O)[C@H](O)c3ccc(c(Cl)c3)Oc3cc2cc(c3O[C@@H]2O[C@H](CO)[C@@H](O)[C@H](O)[C@H]2O[C@H]2C[C@](C)(N)[C@H](O)[C@H](C)O2)Oc2ccc(cc2Cl)[C@H]1O | / | / | / | / | 5.3% | / | 17.4% | /
CCN(CC)C(=O)[C@]1(c2ccccc2)C[C@@H]1CN | 0.4&1.6 | 2.0% | -3.8 | 5.0% | 0.3%&-10.6% | / | 1.7% | 3.1%
NCCCC[C@H](N[C@@H](CCc1ccccc1)C(=O)O)C(=O)N1CCC[C@H]1C(=O)O | 0.1&0.7 | / | -1.5&1.0 | / | 9.2% | -2.5&3.9 | 7.0% | 2.0%&-1.1%
CC(=O)CC(c1ccccc1)C1C(=O)Oc2ccccc2C1=O (configuration not stated) | 12.6 | / | / | / | -15.1% | / | -10.4% | /
CCC(CO)NCCNC(CC)CO (configuration not stated) | 7.5&0.4 | -10.7% | 1.2 | 0.0% | 14.9%&-1.0% | -7.1 | -18.4% | 0.1%
CCCCC[C@H](O)/C=C\[C@H]1[C@H](C/C=C\CCCC(=O)O)[C@@H](O)C[C@H]1O (tested in a mixture with another compound) | 1.2 | / | / | / | -14.3%[24.8 µM] | / | -9.7%[51.4 µM] | /
C[C@@]12CC[C@@H]3c4ccc(O)cc4CC[C@H]3[C@H]1CC[C@H]2O | 0.2 | / | / | / | 1.7%[24.8 µM] | / | / | /
Cc1cccc(C)c1NC(=O)CN1CCN(CCCC(c2ccc(F)cc2)c2ccc(F)cc2)CC1 | -0.4 | / | 3.8 | / | ? | -1.6 | -3.0%[51.4 µM] | -9.7%
CCc1cccc2c3c([nH]c12)C(CC)(CC(=O)O)OCC3 (configuration not stated) | -8.4&11.1 | -1.9% | 2.8 | -0.5% | 2.2%&1.5%&-4.1% | -9.3 | 2.8%&-8.0% | 1.5%
CC(C)(C)NCC(O)COc1nsnc1N1CCOCC1 (configuration not stated) | / | / | / | / | -7.7% | / | -0.4% | /
CN(C)CCOC(c1ccc(Cl)cc1)c1ccccn1 (configuration not stated) | -1.2&-0.5 | -0.5% | 4.7 | -1.9% | 8.6%&2.3%&-17.7% | 11.1&-27.8 | -0.2%&3.6% | 1.0%
O=C1O[C@H]([C@@H](O)CO)C(O)=C1O | / | / | 0.6 | / | 2.2% | -2.4 | -4.5% | 1.5%
CN(C)CCC(c1ccccc1)c1ccccn1 (configuration not stated) | 3.0&3.8 | -9.8% | 0.0&2.3 | -0.4% | -23.0%&-12.5%&1.0%&-9.3% | -1.5&-0.1&12.4 | -10.3%&-3.7%&11.7% | 0.0%&1.2%
CC[C@@H]1OC(=O)[C@H](C)[C@H](O[C@@H]2C[C@](C)(OC)[C@H](O)[C@H](C)O2)[C@H](C)[C@H](O[C@@H]2O[C@@H](C)C[C@@H](N(C)C)[C@@H]2O)[C@](C)(O)C[C@H](C)C(=O)[C@H](C)[C@H](O)[C@]1(C)O | 3.3 | / | / | / | 6.5%[24.8 µM] | / | / | /
Nc1ncn(C2OC(CO)C(O)C2O)c(=O)n1 (configuration not stated) | 5.6 | / | / | / | 1.0% | / | / | /
COc1ccc(NS(=O)(=O)c2ccc(N)cc2)nn1 | -0.5&0.0&2.1&-7.0 | -0.8%&6.3% | 2.1&0.7 | 1.2% | 6.6% | / | 15.2% | 0.9%&-1.0%
CC/C(=C(\c1ccccc1)c1ccc(OCCN(C)C)cc1)c1ccccc1 | 0.8&6.4&3.7 | / | 6.1&0.1 | / | / | -17.1&-4.2 | 30.4%&-7.0%[activator] | 1.3%&-1.3%
COc1ccccc1OCC(O)CO (configuration not stated) | 0.7&1.4 | -4.8% | -1.4 | 0.6% | -0.8%&3.1% | 27.6 | 2.0% | 1.3%
CC#C[C@@]1(O)CC[C@H]2[C@@H]3CCC4=CC(=O)CCC4=C3[C@H](c3ccc(N(C)C)cc3)C[C@]21C | 0.4 | / | / | / | -28.3%[24.8 µM] | / | / | /
CC(C)NCC(O)COc1cccc2[nH]ccc12 (configuration not stated) | 0.0&3.6 | -5.3% | -4.2 | -1.4% | 3.3%&-3.4%&2.6%&5.0% | / | 12.4%&-24.9% | 3.2%
C=CC[N@@+]12CC[C@]34c5ccccc5N5/C=C6\C7N(/C=C(\C53)[C@@H](C[C@@H]41)/C(=C/CO)C2)c1ccccc1[C@@]71CC[N@@+]2(CC=C)C/C(=C\CO)[C@@H]6C[C@@H]12 (some centres not stated) | / | / | -0.5 | / | / | 3.2 | / | 1.4%
COc1ccc(OC)c(C(O)CNC(=O)CN)c1 (configuration not stated) | 4.5 | / | -1.2 | / | -2.0% | ? | / | 1.2%
NC(=O)N1c2ccccc2CC(=O)c2ccccc21 | -32.4*! | 3.3%&-1.6% | 1.7&4.2 | -1.7%&-2.2% | 2.9%&6.6%&-14.6% | -2.5 | ? | -1.6%&5.6%
Cc1ccc(OC[C@H](O)[C@H](C)NC(C)C)c2c1CCC2 | -5.4 | / | 0.2 | / | -1.6%[24.8 µM] | ? | / | 4.2%
OC(CCN1CCCC1)(c1ccccc1)C1CCCCC1 (configuration not stated) | 0.5&-1.9 | 1.6% | 3.8 | 1.0% | -5.8%&-27.2% | -4.2 | 8.7% | -0.6%
CCCC(=O)Nc1ncnc2c1ncn2[C@@H]1O[C@H]2COP(=O)(O)O[C@@H]2[C@@H]1OC(=O)CCC | 3.9 | / | / | / | 0.1%[24.8 µM] | / | / | /
CC[C@H](CO)NCCN[C@H](CC)CO | -1.8 | 1.9% | 1.8 | 2.8% | 8.4% | 0.6 | -0.2% | 4.7%
CC1(C)S[C@@H]2[C@H](NC(=O)Cc3ccccc3)C(=O)N2[C@H]1C(=O)O | 4.5&8.1&0.3&5.7 | 7.9% | -1.4&-2.8 | -3.4%&0.4% | 8.9% | -4.1&6.8 | 2.1%&3.4% | -3.3%&3.9%

An excerpt; the hit share may differ from the screen's.
